Bioassay records (PubChem)
SARS PLP yeast = inhibitors of SARS-CoV papain-like protease in yeast; Potency, µM (doses to about 32.9 µM), for the others: at the top dose activity, positive = growth rescue; S. cerevisiae expressing SARS-CoV PLpro, growth rescue; control for the full effect not named in the record; hit rate 0.19% among 330,000; AID 485353; active means well fitted rising curve with a large enough effect; inconclusive means small, poorly fitted or top-dose-only effect; inactive means no such curve, though single readings can be large or run the other way; note: 0% is about no effect; nearly all actives have a fitted effect of over 55% in size; growth read by luminescence after 48 h
2A StopGo = lowers the luciferase signal of an FMDV 2A StopGo reporter | human cells with a luciferase reporter of 2A StopGo recoding; control for the full effect not named in the record | Potency, µM (top dose mostly 57.9 µM), inactives show top-dose signal change, negative = less light | hit rate 1.2% among 410,000 | AID 1159524; active = well fitted falling curve with a large enough effect; inconclusive = small, poorly fitted or top-dose-only effect; inactive = no such curve, though single readings can be large or run the other way; tested in HEK293T cells; note: % is set by controls: 0 for no effect and ±100 for the full control effect; nearly all actives have a fitted effect of over 45% in size; luciferase light after 4 h
RE007 growth inh = less growth of the S. pombe RE007 Vpr strain; S. pombe RE007 Vpr strain, BacTiter-Glo ATP luminescence, 24 h; control for the full effect not named in the record; Potency, µM (highest dose often 92.2 µM), inactives show at the highest dose activity change, negative = less growth; hit rate 0.21% among 360,000; active = well fitted falling curve with a large enough effect; inconclusive = small, poorly fitted or top-dose-only effect; inactive = no such curve, though single readings can be large or run the other way;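 note: % is set by controls: 0 for no effect and ±100 for the full control effect; nearly all actives have a fitted effect of over 50% in size; the assay follows cell death caused by Vpr and the record does not say whether a fall means rescue or toxicity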
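Fission yeast strain RE007, carrying one chromosomally integrated HIV-1 vpr copy, was seeded at OD 0.01 in PMG+AL medium with 23 nL pinned compound. After 24 h at 30 °C and 99% humidity, viability was read by BacTiter-Glo luminescence.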
NS1 inh = inhibitors of influenza NS1 protein function; AID 2326; Potency, µM (series often up to 46.1 µM), without a hit: top-dose activity, positive = more growth; S. cerevisiae slowed by influenza A NS1, growth recovery by OD600; hit rate 0.4% among 270,000; active means well fitted rising curve with a large enough effect; inconclusive means small, poorly fitted or top-dose-only effect; inactive means no such curve, though single readings can be large or run the other way; note: nearly all actives have a fitted effect of over 50% in size
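In this qHTS, NS1 from influenza A is expressed in budding yeast, where it slows growth. Cells are switched from glucose to 2% galactose medium (pH 6.0, -URA), treated with compound, and growth recovery is read at OD600.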
LASV entry inh = Lassa virus entry inhibition; Lassa virus pseudotype entry inhibition, cell reporter; control for the full effect not named in the record; Potency, µM (series often up to 37.9 µM), for inactives: at the highest dose activity change, negative = inhibition, most hits filed as inhibitors; AID 540256; hit rate 1.2% among 300,000; active means well fitted inhibition curve with a large enough effect; inconclusive means small, poorly fitted or top-dose-only effect, or effect the other way; inactive means flat fitted curve, though single readings scatter; tested in HEK293 cells; note: % is set by controls: 0 for no effect and ±100 for the full control effect; nearly all actives have a fitted effect of over 50% in size; luciferase read-out
Marburg entry inh = Marburg virus entry inhibition. Marburg virus pseudotyped entry inhibition, cell reporter; control for the full effect not named in the record; about a third of the inactives were read at about 46 µM. Potency, µM (doses to about 37.8 µM), inactives show at the top dose activity change, negative = inhibition, hits mostly inhibitors. AID 540276. hit rate 1.8% among 300,000; active = well fitted inhibition curve with a large enough effect; inconclusive = small, poorly fitted or top-dose-only effect, or effect the other way; inactive = flat fitted curve, though single readings scatter; tested in HEK293 cells; about a fifth of its hits are not listed in these tables; note: % is set by controls: 0 for no effect and ±100 for the full control effect; luciferase read-out
Cruzain Triton = blocks cruzain activity in presence of Triton detergent; hit rate 0.43% among 200,000; Potency, µM, without a hit: max response, negative = inhibition, hits mostly inhibitors; purified cruzain, Z-FR-AMC fluorescence, 0.01% Triton; AID 1478; P25779;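 note: plate controls were neutral wells for no effect and buffer without enzyme for full effect; nearly all actives have a fitted effect of over 40% in size; top concentration of the series not given in the record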
Target sequence (P25779 123-467 limits assumed): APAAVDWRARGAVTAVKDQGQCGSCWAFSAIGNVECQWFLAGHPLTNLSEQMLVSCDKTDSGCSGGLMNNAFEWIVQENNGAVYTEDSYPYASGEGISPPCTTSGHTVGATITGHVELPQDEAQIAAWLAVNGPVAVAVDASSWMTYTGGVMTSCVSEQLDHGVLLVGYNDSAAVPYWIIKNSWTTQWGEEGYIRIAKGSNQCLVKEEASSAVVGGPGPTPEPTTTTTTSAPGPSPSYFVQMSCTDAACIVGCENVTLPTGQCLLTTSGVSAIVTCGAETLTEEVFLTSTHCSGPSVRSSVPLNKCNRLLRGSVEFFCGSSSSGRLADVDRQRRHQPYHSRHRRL
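Purified cruzain (1.5 nM final) was preincubated with compounds for 15 min at room temperature in 100 mM sodium acetate pH 5.5, 5 mM DTT, 0.01% Triton X-100. Reaction started with 2 uM Z-FR-AMC; AMC fluorescence change over 60 s gave activity.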
Cruzain noTriton = cruzain (T. cruzi) inhibition without detergent; hit rate 2.3% among 200,000; AID 1476; P25779; purified cruzain, Z-FR-AMC fluorescence, no detergent; Potency, µM, without a hit: max response, negative = inhibition, hits mostly inhibitors;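 note: plate controls were enzyme without inhibitor for no effect and buffer without enzyme for full effect; nearly all actives have a fitted effect of over 40% in size; top concentration of the series not given in the record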
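Purified cruzain at 1.5 nM, pre-incubated 15 min with compound at room temperature in 100 mM sodium acetate pH 5.5, 5 mM DTT, 0.00005% Triton X-100. Reaction started with 2 uM Z-FR-AMC; AMC fluorescence increase over 60 s gives rate.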
An asterisk follows results filed as active; ? = inconclusive; · = no result given; [ ] = dose if it differs, or a comment. Unless noted, calls come from the whole dose curve; as a rule, active = well fitted curve in the direction sought with a large enough effect; inconclusive = small, poorly fitted or top-dose-only effect, or another doubt; inactive = no such curve, though single readings can be large; an effect the other way counts as inactive or inconclusive. Potency is the fitted concentration of half-maximal effect.

SMILES	SARS PLP yeast	2A StopGo	RE007 growth inh	NS1 inh	LASV entry inh	Marburg entry inh	Cruzain Triton	Cruzain noTriton
Cc1cccc(NC(=O)CSc2nc(-c3ccco3)nc3cc(=O)[nH]n23)c1	1%	-13%	·	·	23%[46.1 µM]	·	-6.1%	-16%
O=C(CSc1nnc(Nc2ccccc2)s1)Nc1cccnc1Cl	-9%	-16%	-11%	-1%	7%	1%	2.6%	-18%
Cc1ccc(-c2nn(CCC#N)cc2C(=O)O)cc1C	-1%	1%	9%	·	-6%	4%	·	·
CCC(CO)[n+]1c(C)cc(/C=C2\Sc3ccccc3N2Cc2ccccc2)cc1C (stereo unspecified)	-51%	10µM*	5%	-17%	?	?	-14%	-9%
Cc1ccc(N(CC(=O)NCc2ccccc2)C(=O)c2csnn2)c(C)c1	4%	-21%	11%	4%	-2%	?	·	·
Cc1nc(C)c(-c2ccc(SCc3cccc(F)c3)nn2)s1	-7%	15%	-4%	-13%	·	·	·	·
CCOc1ccc(/C=C/C(=O)C(C(N)=O)=C2SCCS2)cc1	-7%	22%	1%	-6%	2%	?	-5.5%	-6%
O=C(c1cc2c(s1)-c1ccccc1S(=O)(=O)C2)N1CCCC1	-19%	-1%	5%	3%	·	·	·	·
COc1ccc(Cl)cc1N1CC(C(=O)Nc2nccs2)CC1=O (stereo unspecified)	·	-11%	11%	10%	?	?	2.2%	2%
c1ccc(-c2nc3nonc3nc2-c2ccccc2)cc1	-25%	?	?	-67%	-26%	?	-8.0%	-8%
O=C(NCc1ccco1)c1ccc2c(c1)N(Cc1ccc(F)cc1)C(=O)c1ccccc1S2=O (stereo unspecified)	·	-12%	·	·	-7%[46.1 µM]	-5%[46.1 µM]	-6.4%	-15%
CN1CCN(CCCNC(=O)c2ccc(/C=C3\Oc4ccccc4N(Cc4ccccc4F)C3=O)cc2)CC1	-18%	-2%	2%	-3%	·	·	·	·
CCOC(=O)c1c(C)oc2c(Cl)cc(NS(=O)(=O)c3ccc(Cl)c(C)c3)cc12	·	3%	·	·	18%[46.1 µM]	?	0.4%	30%
O=C(NCCc1ccc(Cl)cc1)c1ccc2c(c1)nc1n2CCOC1	·	-3%	·	·	?	·	-0.4%	-5%
CCOC(=O)CN(C(=O)c1ccccc1[N+](=O)[O-])C(C)(C)C	1%	11%	17%	0%	11%	6%[46.1 µM]	·	·
CCCOc1ccc2nc(C)c(CCC)c(SC(=N)N)c2c1	0%	0%	-11%	0%	·	·	·	·
Cc1c(C(=O)N2CCc3ccccc3C2)oc2ccc(Br)cc12	-24%	14%	-11%	·	14%	1%	·	·
COc1ccc2c(c1)nc(SCC(=O)c1cccs1)n2C	-4%	·	?	-28%	13%	27%	-1.4%	-13%
Cc1ccccc1CNC(=O)CCn1nc(C)c2c(C)n(-c3ccccc3)nc2c1=O	3%	-4%	-14%	4%	·	·	·	·
CCOC(=O)N1CCN(S(=O)(=O)c2ccc(C(=O)N(CCCN(C)C)c3nc4c(C)c(C)ccc4s3)cc2)CC1	-7%	-11%	-14%	·	11%	?	·	·
O=C(Oc1cccnc1)c1ccc([N+](=O)[O-])cc1	-29%	-3%	?	3%	-4%	17%	-4.9%	-5%
N#CC(C#N)=Cc1cc2ccccc2nc1N1CCCCC1	-40%	-7%	-25%	-21%	?	?	?	-22%
O=C(CN1CCC(NC(=O)Cc2ccccc2)CC1)Nc1cccc2ccccc12	2%	·	7%	-7%	-3%	9%	4.8%	-9%
CN(C(=O)CSc1nc2ncccc2o1)c1ccc(F)cc1	·	-15%	·	·	8%[46.1 µM]	·	-1.2%	1%
Cc1cc(C)nc(SC2CC(=O)N(c3ccc(C)c(C)c3)C2=O)n1 (stereo unspecified)	6%	-4%	26%	8%	·	·	·	·
COc1ccc(-c2csc3ncn(Cc4ccccc4)c(=O)c23)cc1	-10%	-11%	23%	-7%	·	·	·	·
O=C(NCCCN1CCOCC1)C(=O)NCC1OCCN1S(=O)(=O)c1ccc(Br)cc1 (stereo unspecified)	-6%	-28%	-9%	2%	4%	-2%	·	·
COc1cc(SC)ccc1C(=O)NNC(=O)C1COc2ccccc2O1 (stereo unspecified)	-1%	7%	-15%	·	1%	8%	·	·
Cc1noc(C)c1COC(=O)[C@H](C)NS(=O)(=O)c1ccc(Cl)c(Cl)c1	-1%	-8%	-16%	-1%	2%	-17%	8.5%	-5%
CCn1c(=O)n(-c2ccc(F)c(Cl)c2)c(=O)c2c3c(sc21)CN(C(C)=O)CC3	·	-9%	·	·	·	5%[46.1 µM]	-3.5%	9%
Cc1ccc(C(=O)c2cn(Cc3cccc(C)c3)c3nc(C)ccc3c2=O)cc1	·	-27%	·	·	-27%[46.1 µM]	?	-10%	-20%
COC(=O)c1ccc(NC(=S)NCCCN2CCCC2=O)cc1	0%	-6%	6%	12%	·	·	·	·
COc1cccc(-n2nnc3c(=O)n(CC(=O)Nc4ccc(C)cc4)cnc32)c1	0%	-22%	-2%	9%	·	·	·	·
CCc1ccc(NC(=O)NNC(=O)CCc2ccccc2)cc1	-8%	0%	7%	13%	-6%[46.1 µM]	?	·	·
O=C(CCC(=O)OCC(F)(F)C(F)F)Nc1ccc(F)cc1F	-6%	-13%	13%	-4%	11%	6%	-1.2%	2%
CCc1nn(-c2ccccc2)c2nc(-c3ccccc3OC)c3cc(OC)c(OC)cc3c12	·	-6%	·	·	-6%[46.1 µM]	·	-1.6%	-9%
Cc1cccc2c1-c1sc(C(=O)N3CCc4ccccc4C3)cc1CO2	-14%	5%	-4%	9%	7%	2%	-16%	-112%
Cc1csc2ncc(C(=O)NCc3ccccc3Cl)c(=O)n12	9%	5%	10%	-124%	·	·	-12%	-10%
Cc1ccc2nc(SC(C)C(=O)N3CCCC3)[nH]c2c1 (stereo unspecified)	18%	46%[activator]	1%	1%	1%	7%	-1.0%	-11%
Cc1ccc(-c2nnn(CC(=O)N(c3ccccc3)C(C(=O)NC3CCCC3)c3ccco3)n2)o1 (stereo unspecified)	-3%	-6%	6%	1%	1%	0%	0.7%	10µM*
C=CCn1c(COc2ccc(Cl)cc2)nnc1SCC(=O)N1CC(=O)Nc2ccccc21	1%	-13%	2%[3.69 µM]	0%	5%	-1%	2.9%	11%
CCc1ccc(CN(C)C(C)C(=O)Nc2ccc(S(=O)(=O)N3CCCC3)cc2)cc1 (stereo unspecified)	-3%	-18%	-12%	·	?	-28%	·	·
COc1ccc([C@@H]2C[C@@H](c3ccccc3)Oc3cc(C)cc(C)c32)cc1	-2%	-26%	11%	-4%	·	·	·	·
CCCCOCC(O)CCc1n[nH]c(=S)n1-c1ccccc1 (stereo unspecified)	1%	21%	-7%	0%	6%[46.1 µM]	-12%[46.1 µM]	·	·
CCOc1ccc(S(=O)(=O)NCc2cccnc2)cc1	1%	2%	32%	1%	?	8%	·	·
Cc1ccc(OCC(=O)Nc2ccc(N3CCOCC3)cc2)c([N+](=O)[O-])n1	0%	-8%	5%	·	-7%	9%[46.1 µM]	·	·
CC(C)N(Cc1nc(-c2ccccc2)no1)C(=O)CCCN1C(=O)c2ccccc2C1=O	0%	·	6%	-17%	-9%	5%	-4.4%	?
Cc1c(NC(=O)C(C)Oc2ncnc3ccccc23)c(=O)n(-c2ccccc2)n1C (stereo unspecified)	8%	4%	-4%	1%	5%	23%	1.9%	-5%
Cc1cc2c(NC3CCCCC3)ncnc2s1	-9%	0%	-12%	-55%	?	?	·	·
CC1(C)C(CO)=CC(=O)C2=C1SCC(=O)N2	-7%	-24%	0%	10%	-1%	8%	-1.4%	-4%
COc1ccc(NS(=O)(=O)c2ccc(N3CCCC3=O)cc2)cn1	-6%	-29%	-3%	·	?	?	·	·
C=CCC1C=CCC(CC=C)N1C(=O)c1ccccc1[N+](=O)[O-] (stereo unspecified)	-5%	-23%	9%	-3%	?	?	-2.3%	-28%
Cc1cc(C)c(S(=O)(=O)N2CCN(Cc3ccc4c(c3)OCO4)CC2)cc1C	·	-3%	·	·	-9%[46.1 µM]	22%[46.1 µM]	-4.1%	11%
Cc1ccccc1NC(=O)COC(=O)C1CC2CCCC(C1)C2=O (stereo unspecified)	9%	-15%	?	·	4%	16%	·	·
Cc1cc2ccccn2c1C(=O)c1cccc([N+](=O)[O-])c1	-1%	?	4%	·	?	?	·	·
CC(=O)C1CCC2C3CCC4=CC(=O)C=CC4(C)C3C(=O)CC12C (stereo unspecified)	·	-7%	10%	·	1%[46.1 µM]	-20%[46.1 µM]	·	·
CC[n+]1ccc(C)c2cc(SC(F)(F)F)ccc21	-1%	-3%	-18%	·	6%[46.1 µM]	?	·	·
Cc1nc2ccccc2nc1CN1CCC(CO)(CC2CCCCO2)CC1 (stereo unspecified)	1%	2%	10%	2%	-21%[46.1 µM]	21%[46.1 µM]	·	·
O=C(O)c1ccccc1C(=O)Nc1ccc(-n2ccc(C(F)(F)F)n2)cc1	-2%	10%	4%	-4%	13%[46.1 µM]	4%[46.1 µM]	·	·
O=C(/C=C/c1ccco1)NC(=S)Nc1cccc(-c2nc3ccccc3o2)c1	-3%	-9%	-17%	7%	-28%	?	-8.2%	10µM*
New compounds follow.
SMILES	SARS PLP yeast	2A StopGo	RE007 growth inh	NS1 inh	LASV entry inh	Marburg entry inh	Cruzain Triton	Cruzain noTriton
CC(C)CCNC(=O)C12CN(Cc3ccccc3)CC1C(c1ccc([N+](=O)[O-])cc1)=NO2 (stereo unspecified)	-3%	-5%	11%	4%	·	-1%	-4.3%	-4%
Cc1nn(CC(=O)N2CCc3ccccc32)c(C)c1S(=O)(=O)NC(C)(C)C	3%	46%[activator]	5%	·	-2%	2%	·	·
Cc1ccccc1CN1CCN(S(=O)(=O)c2ccc(Cl)s2)CC1	-6%	-14%	7%	-26%	-16%	?	·	·
CCc1ccc(Nc2ncccc2C#N)cc1	5%	24%	-14%	-19%	21%	?	1.4%	-5%

An unsorted share of the library; 4.7% or so of the library scored in one or more.
